Assay outcomes from PubChem BioAssay.
miR-21 reporter: raises the signal of a miR-21 reporter; HeLa miR-21 FLuc reporter, luciferase, 48 h; AID 2288; Potency, µM (titrated, usually from 38.3 µM), for inactives: at the highest dose reporter change, positive = more light; 340,000 tested, under 10 active; active = well fitted rising curve with a large enough effect; inconclusive = small, poorly fitted or top-dose-only effect; inactive = no such curve, though single readings can be large or run the other way;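 also: % of control where 0% means no effect; miR-21 action dims this reporter so a rising signal means less miR-21 action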
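HeLa cells stably expressing CMV-driven firefly luciferase with a downstream miR-21 binding sequence, endogenously expressing miR-21, were treated with titrations (up to about 40uM final) for 48 hours at 37 degree Celsius. Luciferase luminescence was read after lysis.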
GLA inh pH 4.5: inhibitors of human alpha-galactosidase A at pH 4.5; purified enzyme, 4-MU-alpha-Gal fluorescence, pH 4.5; activity change, negative = inhibition, % at 105 µM; 230,000 tested, under 10 active; inconclusive = small, poorly fitted or top-dose-only inhibition, or a rising curve; inactive = flat fitted curve, though single readings scatter; no compound was filed as active;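 also: 0% = full activity with enzyme and -100% = basal without enzyme; dose as in the result columns while the protocol names 77 µM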
Rango dissoc inh: inhibitors of RanGTP-induced Rango-importin beta complex dissociation | hit rate 0.071% among 340,000 | Biochemical FRET Rango-importin beta, RanGTP-induced dissociation | O95149+P62826 | Potency, µM (doses to about 46.1 µM), inactives show top-dose activity change, negative = inhibition | AID 540253; active means falling FRET ratio curve, often poorly fitted, with flat reads before Ran was added; inconclusive means other falling curves, or compound fluorescence or quenching; inactive means flat or rising ratio curve;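 also: potency is read from the fitted curve at half-maximal effect; % of control where 0% means no effect; nearly all actives have a fitted effect of over 45% in size; -100% = wells without RanGTP and RCC1; the record marks most hits as doubtful in a second field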
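Compounds preincubate 5 min with complex of recombinant Rango and importin beta in PBS with 1 mM DTT. Ran (0.6 uM) loaded with 2 mM GTP plus 0.2 uM RCC1 starts dissociation; FRET is recorded 45 min later.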
Rango complex inh: prevents formation of the Rango-importin beta complex; Rango CFP/YFP FRET sensor + importin beta, 45 min; Potency, µM (doses to about 92.2 µM), without a hit: at the top dose inhibition of complex formation; hit rate 0.031% among 340,000; active = rising FRET ratio curve, often small or poorly fitted; inconclusive = mostly compound fluorescence or quenching in the first reads; inactive = flat curves in all reads;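 also: potency is read from the fitted curve at half-maximal effect; 0% = DMSO wells and 100% = buffer wells lacking importin beta; nearly all actives have a fitted effect of over 15% in size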
Target sequence (Q14974 whole entry, looked up): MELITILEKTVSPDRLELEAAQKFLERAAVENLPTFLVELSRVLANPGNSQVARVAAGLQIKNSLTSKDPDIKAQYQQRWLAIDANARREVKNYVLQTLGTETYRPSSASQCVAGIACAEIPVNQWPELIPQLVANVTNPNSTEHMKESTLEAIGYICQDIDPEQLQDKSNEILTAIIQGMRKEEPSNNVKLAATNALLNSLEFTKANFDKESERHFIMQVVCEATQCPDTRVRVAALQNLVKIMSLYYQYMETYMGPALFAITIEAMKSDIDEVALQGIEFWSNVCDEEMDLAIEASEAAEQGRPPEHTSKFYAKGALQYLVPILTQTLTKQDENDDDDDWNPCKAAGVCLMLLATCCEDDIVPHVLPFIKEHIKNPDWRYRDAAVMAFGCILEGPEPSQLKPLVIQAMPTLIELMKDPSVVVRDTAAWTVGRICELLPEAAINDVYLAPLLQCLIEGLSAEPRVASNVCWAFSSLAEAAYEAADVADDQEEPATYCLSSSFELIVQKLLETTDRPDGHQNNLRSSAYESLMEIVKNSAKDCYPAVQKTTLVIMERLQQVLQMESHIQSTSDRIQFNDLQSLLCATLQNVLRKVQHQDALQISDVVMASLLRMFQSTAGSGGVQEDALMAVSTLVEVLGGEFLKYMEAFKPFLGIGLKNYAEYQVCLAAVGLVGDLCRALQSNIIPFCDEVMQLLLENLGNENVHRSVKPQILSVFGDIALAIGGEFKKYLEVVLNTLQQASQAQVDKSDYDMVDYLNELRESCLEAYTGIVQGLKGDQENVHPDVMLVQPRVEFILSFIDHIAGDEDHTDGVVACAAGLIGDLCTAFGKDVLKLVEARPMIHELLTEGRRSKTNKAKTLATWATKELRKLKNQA
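FRET biosensor (snurportin 1 IBB flanked by EYFP and cerulean), 50 nM, with compound 5 min, then 0.125 microM importin beta in PBS, 1 mM DTT, 0.02% Tween-20, 0.1% BSA. CFP/YFP ratio read after 45 min at room temperature; pre-read flags interference.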
* = called active by the depositor; ? = inconclusive; . = not tested or not shown. Only part of the results is shown, so the mix of outcomes need not match the whole.

SMILES	miR-21 reporter	GLA inh pH 4.5	Rango dissoc inh	Rango complex inh
COc1ccccc1CC(NC(C)=O)C(=O)NC1CCN(C(=O)Nc2ccccc2C)CC1 (stereo not given)	-0.4%	.	-0.5%	1.3%
CC[C@@]1(C(=O)OC)N[C@H](CN(C)C(C)=O)[C@@H]2C(=O)N(Cc3ccccc3)C(=O)[C@@H]21	.	.	7.9%	2.7%
O=C(OCc1cccc([N+](=O)[O-])c1)c1cc(=O)[nH]c2ccccc12	0.8%	7.2	.	.
Nc1ncnc2c1ncn2C1CCCC(CO)O1 (stereo not given)	.	.	-11.1%	3.4%
COc1ccc(NS(=O)(=O)c2ccc(NC(C)=O)cc2)cc1OC	7.1%	-10.9	6.5%	4.7%
Cc1ccc(OCC(=O)NNC(=O)c2ccco2)c(C)c1	-15.9%	.	3.6%	-0.4%
COc1cc2nc(CN3C(=O)c4ccccc4C3=O)oc(=O)c2cc1OC	0.8%	4.8	8.9%	-0.9%
CCCn1c(N)c(N(CCOC)C(=O)CSc2cc(C)c3ccccc3n2)c(=O)[nH]c1=O	.	.	0.7%	0.5%
CN1/C(=C/C(=S)NC(=O)C2CCC2)C(C)(C)c2ccccc21	-8.7%	-3.4	-17.0%	-0.6%
CCCCCn1c(C(C)NC(=O)CCC)nc2ccccc21 (stereo not given)	11.8%	5.2	10.5%	-0.5%
Cc1ccccc1OCC(=O)OCC(=O)NCc1cccs1	-5.1%	9.0	5.1%	-2.2%
O=C(Nc1ccccc1)c1nccn1Cc1ccc(F)cc1	-45.1%	-11.3	-11.3%	0.5%
CN(C)Cc1c(C(=O)N/N=C/c2cccc(OCc3ccccc3)c2)nnn1-c1nonc1N	-6.0%	.	-13.7%	0.0%
COc1cc(C(=O)NCC(=O)N/N=C(/C)c2cccs2)cc(OC)c1OC	-4.7%	5.5	32.7%	5.8%
Cc1ccc(Nc2c(-c3ccccn3)nc3cccc(C)n23)cc1	?	-9.7	-4.4%	-1.0%
CC(=O)N/C(=C\c1ccccc1)C(=O)OCC(=O)Nc1ccc(C)c(S(=O)(=O)N(C)C)c1	.	.	4.3%	0.4%
CCN1CCN(C(=O)c2cc(COc3ccc(C(C)=O)cc3OC)on2)CC1	-58.2%	.	-16.4%	4.9%
Cc1cccc(-c2noc(Cc3ccccc3)n2)c1	-49.6%	-8.8	9.1%	-0.7%
COc1cc(/C=C2\SC(=S)N(NS(=O)(=O)c3ccc(C)cc3)C2=O)cc(OC)c1OC	2.5%	-6.3	-13.1%	12.4%
O=C(Nc1cccc(Cl)c1)Nc1nnc(CC2=CCCCC2)s1	-12.4%	-6.0	-6.2%	2.5%
C=C[C@@H]1c2c(F)cccc2N(S(=O)(=O)c2ccc(C)cc2)[C@H](c2ccc(C(=O)OC)cc2)C1(C#N)C#N	.	.	3.3%	-2.4%
O=C(CSc1ccc2nnc(-c3ccccn3)n2n1)Nc1ccc2c(c1)OCO2	-3.2%	-10.5	-12.8%	0.1%
CC(=O)c1ccc(N2CCN(S(=O)(=O)c3cn(C)cn3)CC2)cc1	0.4%	.	4.1%	0.7%
COc1ccccc1CNS(=O)(=O)c1cc2c3c(c1)CCC(=O)N3CCC2	.	.	11.4%	-4.5%
COc1ccccc1-n1cnnc1SCC(=O)Nc1cccc(S(=O)(=O)N2CCCCC2)c1	6.2%	-0.5	.	.

Seven entries already listed, ordered by the value under Rango complex inh, largest number first:
SMILES	miR-21 reporter	GLA inh pH 4.5	Rango dissoc inh	Rango complex inh
CC[C@@]1(C(=O)OC)N[C@H](CN(C)C(C)=O)[C@@H]2C(=O)N(Cc3ccccc3)C(=O)[C@@H]21	.	.	7.9%	2.7%
O=C(Nc1ccccc1)c1nccn1Cc1ccc(F)cc1	-45.1%	-11.3	-11.3%	0.5%
CN(C)Cc1c(C(=O)N/N=C/c2cccc(OCc3ccccc3)c2)nnn1-c1nonc1N	-6.0%	.	-13.7%	0.0%
Cc1ccc(OCC(=O)NNC(=O)c2ccco2)c(C)c1	-15.9%	.	3.6%	-0.4%
CN1/C(=C/C(=S)NC(=O)C2CCC2)C(C)(C)c2ccccc21	-8.7%	-3.4	-17.0%	-0.6%
Cc1ccccc1OCC(=O)OCC(=O)NCc1cccs1	-5.1%	9.0	5.1%	-2.2%
COc1ccccc1CNS(=O)(=O)c1cc2c3c(c1)CCC(=O)N3CCC2	.	.	11.4%	-4.5%

(further entries)
SMILES	miR-21 reporter	GLA inh pH 4.5	Rango dissoc inh	Rango complex inh
O=C(/C=C/c1ccc(Cl)cc1)c1ccc([N+](=O)[O-])o1	.	.	-3.0%	2.1%
CC(C)CCN1CCN(Cc2cccc3cccnc23)CC1CCO (stereo not given)	-1.1%	-3.0	-9.4%	1.6%
CCc1ccc(C2C(C#N)=C(N)N(N(C)C)C3=C2C(=O)CCC3)s1 (stereo not given)	-8.4%	-7.6	17.8%	0.3%
O=C(CSc1n[nH]c(-c2ccco2)n1)Nc1ccc(F)cc1	-1.2%	.	24.3%	?
CCNC(=O)CP(=O)(c1ccccc1)c1ccccc1	-0.9%	0.4	?	-2.5%
NS(=O)(=O)c1cccc(NC(=O)COC(=O)/C=C/c2ccco2)c1	1.7%	4.4	12.7%	0.1%
CCc1ccccc1NC(=O)c1ccc([N+](=O)[O-])s1	?	3.7	6.8%	-4.1%
CC(C)NC(=O)N(C)C[C@H]1Oc2ccc(NC(=O)Nc3ccccc3)cc2C(=O)N([C@@H](C)CO)C[C@@H]1C	.	.	26.7%	-1.4%
O=C(NCc1ccc(F)cc1)Nc1ccccc1	-42.4%	.	3.6%	-0.9%
O=C(CSc1ccc(-c2ccc(F)cc2)nn1)NCC1CCCO1 (stereo not given)	-6.7%	-19.7	-3.9%	-0.3%
COC(=O)CCC(NC(=O)OCc1ccccc1)C(=O)NC(CC(C)C)C(=O)OC (stereo not given)	0.2%	4.6	40.5%	3.4%
COc1ccc(N(CC(=O)Nc2cccc(OC)c2)S(=O)(=O)c2c(C)nn(C)c2C)cc1	2.2%	6.1	6.4%	2.7%
O=C1CCCN1c1ccc(S(=O)(=O)N2CCN(c3ccccn3)CC2)cc1	-7.8%	0.7	-9.9%	-1.3%
Cc1cc(/C=N/Nc2nc(N)ncc2[N+](=O)[O-])c(C)n1-c1ccccc1F	3.6%	6.3	.	.
CCOP(=O)(OCC)c1nc(/C=C/c2ccccc2)oc1NCc1ccccc1	-5.9%	?	?	?
O=C(c1ccc2c3c(cccc13)CC2)C1CCCN(C(=O)c2cccnc2)C1 (stereo not given)	0.3%	4.7	23.0%	-1.2%
COc1ccccc1C(=O)Nc1sc2c(c1C#N)CCC2	-12.4%	.	3.1%	-1.8%
Cc1nnc(Nc2ccc(Cl)c(C(F)(F)F)c2)[nH]c1=O	-2.2%	?	-7.6%	6.0%
CC[N+](CC)(CCO)CCCN1C(=O)C2CC=C(Cl)CC2C1=O (stereo not given)	-2.0%	-4.1	-12.6%	2.2%
CC1CN(S(=O)(=O)c2ccc(C(=O)Nc3ccc(S(=O)(=O)Nc4nccs4)cc3)cc2)CC(C)O1 (stereo not given)	-17.1%	7.1	0.7%	0.1%
COc1ccc(/C=C(/C(=O)NCc2ccccc2)c2ccccc2)cc1	-7.0%	7.4	3.7%	5.2%
CC(=O)c1c(C)[nH]c(C(=O)CSc2nc3ccc(C)cc3[nH]2)c1C	4.2%	-3.4	13.2%	0.3%
COc1ccc2cc(-c3ccccc3F)ncc2c1	.	.	-6.5%	-0.2%
CCOc1ccc2oc(C(=O)OCC(=O)NCC3CCCO3)c(C)c2c1 (stereo not given)	.	.	5.7%	2.0%
CCOC(=O)C(=O)Nc1sc(C(=O)N2CCOCC2)c(C)c1C#N	1.7%	-11.3	0.0%	5.3%
Later entries
SMILES	miR-21 reporter	GLA inh pH 4.5	Rango dissoc inh	Rango complex inh
O=C(OCC(=O)C12CC3CC(CC(C3)C1)C2)c1cnccn1	-1.2%	.	0.7%	3.7%
O=C(O)C1CCCCC1C(=O)Nc1ccccc1Nc1ccccc1 (stereo not given)	2.4%	9.3	26.8%	7.8%
CN(C)CCCNC(=O)COc1ccc(Br)cc1Cl	-17.1%	3.0	12.5%	-2.1%
Cc1nn(-c2ccccc2)c(C)c1NC(=O)COc1cc(F)ccc1[N+](=O)[O-]	.	.	0.4%	-3.7%
Cc1cccc(NC(=O)c2cc(-c3ccco3)nc3ccccc23)n1	4.6%	5.5	-26.9%	?
C[C@H]1C=C(C(=O)N2CCOCC2)O[C@@H](OCc2ccc(CO)cc2)C1	-0.5%	0.4	-8.5%	2.5%
Cn1ncc2c(Nc3ccc4ccccc4c3)ncnc21	-71.9%	0.6	7.6%	-3.7%
O=C(N/C(=C/c1cccnc1)C(=O)N1CCOCC1)c1ccccc1F	-6.7%	0.1	0.9%	-1.4%
CCc1ccc(CNC(=O)Cn2nc(-c3ccc(C)cc3)ccc2=O)cc1	?	-3.6	.	.
O=C(Cc1cccs1)NCc1ccc2c(c1)OCO2	-40.1%	-11.6	18.3%	-1.4%
CC(=O)Nc1ccc(S(=O)(=O)NCCC(=O)N2CCCCC2)cc1	.	.	-3.1%	0.6%
CCOc1ccc(C(=O)NC(=S)Nc2ccc(NC(=O)c3ccco3)c(C)c2)cc1[N+](=O)[O-]	-2.9%	0.6	-0.7%	3.9%
C[C@H]1[C@H](C)CC[C@]2(C)CC[C@]3(C)C(=CC[C@@H]4[C@@]5(C)CC[C@@H](O)[C@](C)(C(=O)O)[C@@H]5CC[C@]43C)[C@H]12	5.2%	-3.4	.	.
OC(CN1CCN(c2ccccc2)CC1)Cn1c2ccccc2c2ccccc21 (stereo not given)	0.0%	-0.3	17.0%	-1.3%
C=CCN(C(=O)CCC(=O)Nc1cc(C)on1)C(C(=O)NC(C)(C)C)c1cccc(OC)c1OC (stereo not given)	-0.1%	0.8	17.6%	3.8%
CCOC(=O)C1=C(C)NC(=O)NC1c1ccc(OCC(=O)OC)c(OC)c1 (stereo not given)	1.0%	1.4	-10.2%	0.0%
Cc1cc(/C=C2\SC(=O)N(C)C2=O)c(C)n1-c1ccc(O)cc1	-0.1%	.	-5.7%	?
S=C(NCc1ccc2c(c1)OCO2)Nc1ccc2nsnc2c1	-25.0%	-27.1	-10.3%	?
CNC(=O)c1nn(-c2ccc(C)cc2)ccc1=O	-2.4%	-13.8	-3.5%	1.2%
C/C(=N\NC(=O)NC1CCCCC1)C1CCCCC1	-3.8%	4.2	-21.3%	0.0%
CC(C)NC(=O)c1ccc(-c2ccccc2C(F)(F)F)o1	-59.1%	-14.5	-0.5%	1.4%
OCCC1CN(Cc2cccc3c2OCO3)CCN1C1CCCCC1 (stereo not given)	0.0%	2.2	10.7%	3.3%
COc1ccccc1OCCNC(=O)C(CCSC)NC(=O)COc1ccccc1 (stereo not given)	.	.	5.3%	2.8%
CCCCCCC/C(C)=N/NC(=O)CC(=O)NCCc1ccccc1	2.4%	1.8	4.9%	0.3%
Cc1ccc(-c2cc3nc(C)cc(C)n3n2)cc1	-63.4%	10.3	-16.1%	0.8%
New compounds follow.
SMILES	miR-21 reporter	GLA inh pH 4.5	Rango dissoc inh	Rango complex inh
COCc1nc2ccccc2n1Cc1ccc(Br)cc1	-56.5%	1.2	1.7%	0.1%
Cc1ccc(/C=N/Nc2nncc(-c3ccccc3)n2)o1	-22.5%	?	0.4%	-4.1%
COc1ccc(S(=O)(=O)N(C)CC(=O)N2CCN(Cc3ccccc3)CC2)cc1C	4.2%	-6.7	1.8%	-0.8%
NC(=O)c1ccc(NC(=O)CS(=O)(=O)c2cn(CC(=O)N3CCCCC3)c3ccccc23)cc1	1.4%	.	18.8%	0.5%
Cc1cc(C(=O)CNCc2ccco2)c(C)n1-c1ccc(F)cc1	-29.3%	-9.8	?	?
C=CC[C@]12C[C@@H](OC)C(=O)C=C1O[C@@H](c1ccc(OC)c(OC)c1)[C@H]2C	.	.	-5.4%	0.1%
CCS(=O)(=O)c1ccc(C(=O)Nc2ccccc2OC)c(Cl)c1Cl	-8.5%	-18.0	?	1.2%
O=C(CCS(=O)(=O)c1ccccc1)Nc1ccccn1	-3.4%	.	-6.6%	-0.1%
CCCNC(=O)c1onc(CS(=O)(=O)c2cc(C)cc(C)c2)c1C(=O)NCCC	.	.	5.1%	0.9%
